Screening data: PubChem BioAssay, several laboratories
RN4220 kill = kills Staphylococcus aureus RN4220; S. aureus RN4220 growth, OD600, 16 h; inhibition, % (no concentration beside the values); 330,000 compounds, 0.33% hits;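 active means z-score of -3 or lower and OD600 up to 0.18 on both plates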;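 further: plate controls were untreated cells for no effect and reference antibiotic for full effect; stock transfer was 100 nL into about 80 µL; one replicate is shown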
Mtb hypoxia inh = reduces hypoxia-regulated biosensor signal in M. tuberculosis; M. tuberculosis hypoxia-regulated fluorescent reporter, fluorescence; fluorescence inhibition, % (test concentration not listed); 300,000 compounds, 0.1% hits; AID 1159583;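 active means 35 to 45% if threefold the growth effect, above 45% if 1.5-fold the growth effect; inactive means the rest, general growth blockers included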;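 further: wells of about 50 µL received 100 nL stock; 0% = vehicle wells and 100% = reference inhibitor wells; whole bacteria with a GFP reporter of the hypoxia response; strong numbers were not always called active; many hits fall short of the cut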
PrP UTR inh = inhibition of PrP 5' UTR reporter expression. cell-based PrP 5' UTR mRNA reporter, plate reader. inhibition, % (concentration not given with the values). 340,000 compounds, 0.35% hits;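 active means every replicate at 50% or more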;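 further: 0 = median of the neutral control wells; tested in H4 reporter cells; numbers are from one replicate; inactives centre near -14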
BJeLR viability = BJeLR cell viability loss; BJeLR (HRASV12) viability, CellTiter-Glo ATP luminescence, 48 h; reference of the scale not given here; 300,000 compounds, 0.17% hits; inhibition, % (concentration not given with the values);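 active means replicate mean above 50%; inconclusive means above 50% but judged a plate artefact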;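 further: 50 nL library stock added to about 25 µL; numbers are from one replicate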
ugtP null kill = growth inhibition of S. aureus ugtP deletion strain | S. aureus RN4220 ugtP deletion, OD600 growth, 16 h; some inactives read as strong as hits | growth inhibition, % (concentration not given with the values) | 330,000 compounds, 0.54% hits | AID 1259309;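 active means z-score under -3 and OD600 up to 0.15 on both plates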;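 further: plate controls were untreated wells for no effect and antibiotic for full effect; wells of about 80 µL received 100 nL stock; the first replicate is given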
Bead autofluor = compound fluorescence in toxin protease inhibitor counterscreen; compound autofluorescence counterscreen, microsphere flow cytometry; hits give high values; fluorescence intensity (test concentration not listed); 360,000 compounds, 3.1% hits;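 active means at least 3 SD above the mean of all compounds, about 16000 in these data; inconclusive means too few beads counted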;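 further: 100 nL of 1 mM stock went into each well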
Mtb hypoxia inh growth = further read-out of Mtb hypoxia inh, marked with its call; growth inhibition, %; measured here: M. tuberculosis growth (absorbance);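 0% = vehicle and 100% = reference antibiotic; read after six days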
An asterisk follows results filed as active; u = inconclusive; x = no result given.

SMILES	RN4220 kill	Mtb hypoxia inh	Mtb hypoxia inh growth	PrP UTR inh	BJeLR viability	ugtP null kill	Bead autofluor
CN(Cc1ccc(F)cc1)C(=O)c1cccc(S(=O)(=O)NCc2ccccc2)c1	1.5	3	-2	-9	-7	0	4475
O=c1oc(-c2ccccc2)cc(Cl)c1Cl	11	13	1	-28	23	17	3539
Cc1cc(N(C)NC(=S)Nc2ccccc2)nc(C)n1	4.0	11	4	-24	8	8	7767
CN(Cc1cccc(F)c1)C(=O)CN1C(=O)NC2(CCc3ccccc32)C1=O (stereo unspecified)	1.8	0	2	2	x	1	8714
COc1cc(/C=N\NC(=O)C2C(=O)NCC2c2ccccc2)cc(OC)c1O (stereo unspecified)	x	x	x	-36	-2	x	2455
CCC(=O)Nc1nc2ccccc2n1CCN(C)C	-1.0	x	x	-16	4	11	4372
CC(C)CN(C(=O)CSc1nn(-c2ccc(Cl)cc2)c(=S)s1)C1CCS(=O)(=O)C1 (stereo unspecified)	1.9	7	-1	-5	4	-6	3083
O=C(CNS(=O)(=O)c1ccc(Br)s1)NCC1COc2ccccc2O1 (stereo unspecified)	3.3	1	2	2	-5	1	10697
COCCNS(=O)(=O)c1ccc(Cl)c(C(=O)NC2CCN(Cc3ccccc3)CC2)c1	-0.6	0	2	-5	-9	12	5613
Cc1cc(=O)oc2c3c(cc(OCC(=O)NC4CC4)c12)OC(C)(C)CC3	2.8	x	x	-97	-2	11	5494
N#CCCn1nc(-c2ccccc2)cc1-n1c(C(F)(F)F)nc2ccccc21	1.9	x	x	-28	0	2	4539
O=C(CSc1nnc(-c2ccccc2)o1)NC1CC1	0.7	9	-2	-33	-19	3	3925

Reprinted from the part before: two entries, then new ones.
SMILES	RN4220 kill	Mtb hypoxia inh	Mtb hypoxia inh growth	PrP UTR inh	BJeLR viability	ugtP null kill	Bead autofluor
N#CCCn1nc(-c2ccccc2)cc1-n1c(C(F)(F)F)nc2ccccc21	1.9	x	x	-28	0	2	4539
O=C(CSc1nnc(-c2ccccc2)o1)NC1CC1	0.7	9	-2	-33	-19	3	3925
FC(F)(F)c1nc2nncn2c2c1CCCCC2	0.4	x	x	-31	3	6	3235
COc1ccc(NC(=O)c2ccc(S(=O)(=O)N3CCCCC3)cc2)c(OC)c1	2.1	-1	9	-2	-18	0	3827
COc1cccc(C2=NOC(C(=O)NC(C)C)C2)c1 (stereo unspecified)	3.7	-5	8	-18	0	-4	10604
CC(Sc1n[nH]c(N)n1)C(=O)Nc1ccccc1-c1ccccc1 (stereo unspecified)	2.2	7	2	-14	-6	-5	4060
Cc1ccc(C=NNC(=O)CNC(=O)COc2ccccc2)cc1	1.7	3	-3	x	x	-1	x
C[C@@]12C(=O)N(c3cccc(F)c3)C(=O)N1[C@H](c1ccc(Cl)cc1)[C@@H]1C(=O)N(C3CCCCC3)C(=O)[C@@H]12	x	x	x	-18	1	x	3009
O=C(CNc1ccc2ccccc2c1)NN=Cc1ccccn1	0.0	10	9	x	x	-8	x
CCOCC(=O)Nc1ccc(S(=O)(=O)NCC2CCCO2)cc1 (stereo unspecified)	2.4	-1	-1	-34	-2	3	4093
CC(=O)N(CN1C(=O)c2ccccc2C1=O)c1ccccc1	3.1	-3	-3	-7	-10	1	3254
CC(CC(=O)Nc1cccc(Cl)c1Cl)=NNC(=O)C(=O)N1CCCC1	0.4	2	6	x	x	7	x
O=C(O)c1cscn1	1.7	9	4	-7	5	5	10904
Cc1ccc(S(=O)(=O)/N=c2\scc(C)n2C)cc1	x	x	x	0	-4	x	2903
Nc1nnnn1N=Cc1cccc(Oc2ccccc2)c1	3.4	2	6	x	x	-4	x
Cc1ccc(C)c(-n2c(C)nc3ccccc3c2=O)c1	0.2	3	0	x	-6	0	5947
OC1(c2ccccc2Cl)NN=C2CCCCCN21 (stereo unspecified)	7.7	6	2	-15	-3	0	2259
CCOC(=O)c1nn(-c2ccc(C)c(C)c2)cc1O	2.6	-3	4	-98	-4	-6	23047*
NS(=O)(=O)c1ccc(CNC(=O)c2cc(-c3cccnc3)nc3ccccc23)cc1	-5.1	-6	3	-15	2	-3	4691
C(=N\N(Cc1ccccc1)c1ccccc1)/c1ccco1	x	x	x	-19	7	x	2119
CC(C)=C1C2CCC1C(C(=O)NCc1ccccc1)C2C(=O)O (stereo unspecified)	8.2	12	19	-17	-2	0	9571
COCCCNC(=O)Cn1c(=O)n(CC(=O)NCCc2ccc(OC)c(OC)c2)c(=O)c2sccc21	1.6	-5	1	-15	-9	4	4566
CCN(Cc1ccccc1)c1ccc(/C=C(\C#N)c2ccccn2)cc1	x	x	x	-159	14	x	2663
COC(=O)[C@]1(Cc2ccccc2)N[C@H](CN(C)C(=O)COc2ccccc2)[C@@H]2C(=O)N(Cc3ccccc3)C(=O)[C@@H]21	2.7	-6	10	-18	x	-1	3617
COc1ccc(-c2nc(C#N)c(NCCCN3CCOCC3)o2)cc1	5.7	10	5	-16	-3	8	4485
O=C(NC1CCN(Cc2ccccc2)CC1)c1cccc(Br)c1	-2.2	11	13	-2	6	14	4530

An excerpt taken from the entries so far, as a working copy:
SMILES	RN4220 kill	Mtb hypoxia inh	Mtb hypoxia inh growth	PrP UTR inh	BJeLR viability	ugtP null kill	Bead autofluor
C[C@@]12C(=O)N(c3cccc(F)c3)C(=O)N1[C@H](c1ccc(Cl)cc1)[C@@H]1C(=O)N(C3CCCCC3)C(=O)[C@@H]12	x	x	x	-18	1	x	3009
O=C(CNc1ccc2ccccc2c1)NN=Cc1ccccn1	0.0	10	9	x	x	-8	x
CCOCC(=O)Nc1ccc(S(=O)(=O)NCC2CCCO2)cc1 (stereo unspecified)	2.4	-1	-1	-34	-2	3	4093
CC(=O)N(CN1C(=O)c2ccccc2C1=O)c1ccccc1	3.1	-3	-3	-7	-10	1	3254
CC(CC(=O)Nc1cccc(Cl)c1Cl)=NNC(=O)C(=O)N1CCCC1	0.4	2	6	x	x	7	x
O=C(O)c1cscn1	1.7	9	4	-7	5	5	10904
Cc1ccc(S(=O)(=O)/N=c2\scc(C)n2C)cc1	x	x	x	0	-4	x	2903
Nc1nnnn1N=Cc1cccc(Oc2ccccc2)c1	3.4	2	6	x	x	-4	x
Cc1ccc(C)c(-n2c(C)nc3ccccc3c2=O)c1	0.2	3	0	x	-6	0	5947
OC1(c2ccccc2Cl)NN=C2CCCCCN21 (stereo unspecified)	7.7	6	2	-15	-3	0	2259
CCOC(=O)c1nn(-c2ccc(C)c(C)c2)cc1O	2.6	-3	4	-98	-4	-6	23047*
NS(=O)(=O)c1ccc(CNC(=O)c2cc(-c3cccnc3)nc3ccccc23)cc1	-5.1	-6	3	-15	2	-3	4691
C(=N\N(Cc1ccccc1)c1ccccc1)/c1ccco1	x	x	x	-19	7	x	2119
CC(C)=C1C2CCC1C(C(=O)NCc1ccccc1)C2C(=O)O (stereo unspecified)	8.2	12	19	-17	-2	0	9571
COCCCNC(=O)Cn1c(=O)n(CC(=O)NCCc2ccc(OC)c(OC)c2)c(=O)c2sccc21	1.6	-5	1	-15	-9	4	4566
CCN(Cc1ccccc1)c1ccc(/C=C(\C#N)c2ccccn2)cc1	x	x	x	-159	14	x	2663
COC(=O)[C@]1(Cc2ccccc2)N[C@H](CN(C)C(=O)COc2ccccc2)[C@@H]2C(=O)N(Cc3ccccc3)C(=O)[C@@H]21	2.7	-6	10	-18	x	-1	3617
COc1ccc(-c2nc(C#N)c(NCCCN3CCOCC3)o2)cc1	5.7	10	5	-16	-3	8	4485

Additional results follow:
SMILES	RN4220 kill	Mtb hypoxia inh	Mtb hypoxia inh growth	PrP UTR inh	BJeLR viability	ugtP null kill	Bead autofluor
COCCNC(=O)C(=O)Nc1cc2c3c(c1)C(C)C(=O)N3CCC2 (stereo unspecified)	3.9	10	0	-10	5	8	4950
COCCn1c(-c2ccc(Cl)cc2)cnc1SCC(=O)NCc1cccs1	-0.5	x	x	-25	x	2	4417
COc1cc2oc(=O)cc(-c3ccc(-c4ccc(C(F)(F)F)cc4)cc3)c2c(OC)c1OC	3.5	-11	1	-14	x	6	3630
Cc1cc(NC(=O)C(=O)NCCN2CCN(S(C)(=O)=O)CC2)ccc1Br	-2.5	13	5	-13	x	6	5151
Cn1c(=O)c2c(ncn2CC(=O)N2CCN(S(=O)(=O)c3ccccc3)CC2)n(C)c1=O	-0.9	-2	-7	-37	-5	2	x
Cc1ccc(C(=O)Nc2ccccc2C(=O)O)cc1S(=O)(=O)Nc1ccccc1	6.1	6	-7	-5	-4	5	x
CCOC(=O)C1=C(N)OC(CCl)=C(C#N)C1c1ccsc1 (stereo unspecified)	-2.5	4	2	-2	13	-14	9530
COC(=O)C1=C(c2ccc(F)cc2F)C[C@@H]2CC[C@H]1N2C(=O)NCC1CC1	-11	8	16	-5	x	-5	2783
c1ccc(-c2nc(-n3ccnc3)nc(-n3ccnc3)n2)cc1	32	10	2	-36	7	11	5287
Cc1ccc(-n2c(SCC(=O)Nc3cc(S(=O)(=O)N4CCOCC4)ccc3Cl)nc3ccccc3c2=O)cc1	x	x	x	-11	-5	x	2000
CSc1ccc(CN(C)C(C)C(=O)Nc2ccc(F)c(F)c2F)cc1 (stereo unspecified)	6.0	1	5	53*	2	18	3255
COc1cccc(-c2nn(C)c3sc(C(=O)N4CCN(c5ccccn5)CC4)cc23)c1	1.1	x	x	-9	-2	5	2388
CC(C)(C)C1=C(C#N)C(c2ccncc2)C(C#N)=C(N)O1 (stereo unspecified)	3.3	9	3	-27	-14	4	2023
O=S1(=O)CCN(CCc2c[nH]c3ccccc23)CC1	2.8	1	-8	-7	2	7	4420
CCc1ccc(Nc2nnc(SCC(=O)Nc3cccc(S(=O)(=O)NC4=NCCCCC4)c3)s2)cc1	7.4	-6	11	-29	-10	-16	2748
CCOc1ccc(Nc2nc(Cc3nnc(SCC(=O)NCC4CCCO4)n3C)cs2)cc1 (stereo unspecified)	0.4	-5	2	0	-12	1	8817
CC1(C)Cc2c(ccc3ccccc23)/C(=C/C#N)N1	1.8	-3	-3	-20	-7	1	9229
Cc1ccsc1CNn1cnnc1SCc1ccc(Cl)cc1	6.1	1	6	1	-3	-10	23748*
O=C(NNc1nc2c(F)cccc2s1)c1ccc(F)cc1	-1.4	0	-6	-34	-1	1	4321
CCOCCc1nnc(NC(=O)CCC2CCCCC2)s1	-0.4	9	8	-12	7	-1	3631
CCC(=O)NC(c1ccc(C)cc1)c1cc([N+](=O)[O-])c2cccnc2c1O (stereo unspecified)	94*	5	10	7	12	95*	1775
COc1cc(C(=O)Nc2cccc3c2CCCC3)cc(OC)c1OC	5.2	3	20	-20	-1	7	3445
O=[S@]1Oc2ccccc2-c2ccccc21	4.3	8	23	-42	-6	2	3280
Cc1ccc(NC(=O)CN(C)C(=O)CNC(=O)c2sc3ccccc3c2Cl)cc1	3.3	-8	4	-11	5	-2	u
CCOc1cc([C@@H]2C[C@H]3CN(c4ccccc4)C(=O)[C@]34CCCN24)ccc1OC	5.6	11	3	-7	-2	1	22393*
O=C(NC1CCCCC1)[C@@H]1CC=C[C@@H]2CCN(C3CCCCC3)C(=O)[C@@H]21	x	x	x	-4	1	x	3503
COC(=O)CCCC1=CC2=CC(=O)C(C)(OC(=O)CCc3ccccc3)C(=O)C2=CO1 (stereo unspecified)	x	x	x	-13	-9	x	4174
O=C(N/N=C/c1ccc(-c2cccc(C(F)(F)F)c2)o1)c1ccccc1Br	x	x	x	-49	6	x	9536
Cc1csc(SCC(=O)Nc2ccccc2)n1	4.0	0	-7	-22	9	18	2941
CCOC(=O)C1(Cc2cccc(Cl)c2)CCCN(C(=O)C(C)(C)C)C1 (stereo unspecified)	6.5	5	9	-2	-10	-3	3118
CCCN1C(=O)C(O)(CC(C)=NO)c2ccccc21 (stereo unspecified)	11	-6	5	x	x	-1	x
Cc1cc(Cl)ccc1Oc1nccc(N(C)C)c1C#N	4.2	8	7	-23	-16	5	9887
CCCC(=O)Nc1nc2ccc3nc(C)sc3c2s1	3.8	6	2	-42	4	-7	3248
